# Mtb H37Rv: Confirmatory growth inhibition assay against Mycobacterium tuberculosis H37Rv, potency (AID 1949); most inactive calls were filed without a number and no value below 0 was filed; 1.6% of 100,000 active; inhibition, % at 10 µg/mL, or IC50 in µg/mL where a hit was titrated;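 active means confirmed in a dose series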;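 further: bacteria grown 7 days with compound before Alamar blue readout; 0% = untreated bacteria and 100% = reference antibiotic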
# Starred values were filed as active, the others as inactive; i = inactive. Only part of the results is shown; rates above refer to the full screens.
# The opening three entries (preview)
SMILES,Mtb H37Rv
CCN(CC)CCNC(=O)c1cccc(Br)c1,i
CCc1ccc(C2c3c(oc4ccccc4c3=O)C(=O)N2c2nnc(C)s2)cc1 (stereo not given),0.1%
CSc1nc2sc3c(c2c2nnc(SCc4cccc5ccccc45)n12)CCN(C)C3,19.3%

# The listing, repeating the preview:
SMILES,Mtb H37Rv
CCN(CC)CCNC(=O)c1cccc(Br)c1,i
CCc1ccc(C2c3c(oc4ccccc4c3=O)C(=O)N2c2nnc(C)s2)cc1 (stereo not given),0.1%
CSc1nc2sc3c(c2c2nnc(SCc4cccc5ccccc45)n12)CCN(C)C3,19.3%
Cc1cc(Br)cc(C)c1OCC(=O)Nc1ccc2c(c1)OCCO2,10.1%
Clc1ccc(CSc2ncccn2)cc1,1.8%
O=C(CCN1C(=O)C2CC=C(Cl)CC2C1=O)NCc1ccco1 (stereo not given),i
Cc1ccc(C)c(NC(=O)COc2ccc(S(=O)(=O)NC(C)C)cc2)c1,i
COc1ccc(NC(=S)NCc2cn(-c3ccccc3)nc2-c2ccccc2)cc1OC,7.2%
CC(C)C(=O)Nc1cc2c(cc1C(=O)c1ccccc1Cl)OCCO2,i
Cc1scc(C(=O)Nc2ccc(N3CCOCC3)c3nonc23)c1-c1ccccc1,41.6%
COc1cccc(N(CC(=O)Nc2ccc(C(C)C)cc2)S(C)(=O)=O)c1,6.6%
Cc1ccc(CNC(C)Cc2ccccc2)o1 (stereo not given),i
Cc1ccc(-c2n[nH]c(=S)n2N=Cc2ccc(OCc3ccccc3)cc2)cc1,i
COc1cccc(N(CC(=O)NCCSCc2ccccc2C)S(C)(=O)=O)c1,i
O=C(CSc1nc2c(c(C(F)(F)F)n1)CCCC2)c1ccccc1,6.4%
O=C(CC1CCCCC1)NC1CCCCCCC1,i
Cn1c(SCc2ccccc2F)nnc1C(O)c1ccccc1 (stereo not given),i
COc1ccc(N2CCN(C(=O)CN3C(=O)c4ccccc4C3=O)CC2)cc1,i
N#Cc1c(NC(=O)CSc2ccc(Br)cc2)sc2c1CCCC2,i
O=C(Nc1ccc(I)cc1)c1cnsn1,i
COc1cc(C(=O)Nc2cccnc2)c([N+](=O)[O-])cc1OC,i
CC(C)OCCn1cnc2sc(-c3ccccc3)cc2c1=O,i
Cc1cc(=O)[nH]c(SCC(=O)Nc2ccc(Cc3ccncc3)cc2)n1,i
CCOC(=O)c1c(NC(=O)c2cccs2)sc(C(=O)N2CCCC2)c1C,i
O=C(NC1CCCCC1)C1CC(=O)N(c2ccc(Cl)cc2)C1 (stereo not given),1.0%
Cc1cccc(OCCNC2CCCC2)c1C,i
CC(C)c1nnc(NC(=O)c2cc(-c3ccccc3)nc3ccccc23)s1,40.3%
CCOC(=O)c1ccc(NC(=S)Nc2cnn(Cc3cccc(OC)c3)c2)cc1,i
O=C(Nc1cccc(Cl)c1)N1CCC(Cc2ccccc2)CC1,2.1%
Cc1cccc(NC(=O)C(C)N(c2ccc(Oc3ccccc3)cc2)S(C)(=O)=O)c1 (stereo not given),i

# 2 entries picked at random from those above:
SMILES,Mtb H37Rv
Cc1cccc(OCCNC2CCCC2)c1C,i
Cc1cccc(NC(=O)C(C)N(c2ccc(Oc3ccccc3)cc2)S(C)(=O)=O)c1 (stereo not given),i

# Going on with the list.
SMILES,Mtb H37Rv
CCCCOc1ccc(C(=O)NCc2ccc(OC)cc2)cc1,i
CCc1ccccc1NC(=O)CN(c1cccc(Cl)c1)S(=O)(=O)c1ccc(C)cc1,i
COc1ccc(CCNC(=O)c2cnn3c(C(F)F)cc(-c4ccccc4)nc23)cc1OC,i
CCOC(=O)c1ccccc1NS(=O)(=O)CC,i
O=C(Nc1ccc(S(=O)(=O)Nc2ccccc2)cc1)C1CC1,i
CCC(Sc1nnc(COc2ccccc2C)n1C)C(=O)Nc1ccc(Cl)cc1 (stereo not given),10.3%
COCCNC(=S)NC(=O)c1cccc(C)c1,1.7%
O=C(CC(NCc1ccccc1)C(=O)O)Nc1cccc(Cl)c1Cl (stereo not given),i
NC(=O)CSc1nnc(-c2cnccn2)n1-c1ccccc1,i
Cc1cc(C)nc(SCC(=O)Nc2ncc(Cc3ccc(Cl)c(Cl)c3)s2)n1,i
Cc1ccc(C)n1-c1ccc(-n2cnnn2)cc1,5.1%
CCn1c(COc2ccccc2Cl)nnc1SCC(=O)N1c2ccccc2Sc2ccccc21,i
CCN(c1ccccc1)S(=O)(=O)c1ccc(NC(=O)c2ccco2)cc1,i
O=C(c1ccc([N+](=O)[O-])cc1)N1CCC(C(=O)N2CCN(c3ccccc3)CC2)CC1,i
Brc1ccc(OCc2ccccc2)c(CNCC2CCCO2)c1 (stereo not given),7.1%
CN1C(C(=O)c2ccccc2)=C(OC(=O)Cc2ccccc2)c2ccccc2S1(=O)=O,1.8%
O=C(Nc1c(F)cccc1F)C1CCN(C(=O)c2ccc(Cl)cc2Cl)CC1,i
CCC(=O)c1ccc(OC(=O)N(C)c2ccccc2)cc1,0.5%
CCOc1ccccc1N1CCN(Cc2cccc(F)c2)CC1,i
CCc1ccccc1NC(=O)CSc1nnc(C)s1,i
CCOc1ccccc1N(CC(=O)Nc1ccccc1)S(=O)(=O)c1ccc(C)cc1,i
O=[n+]1c2c(n([O-])c3cc(Br)ccc31)CCCC2,6.6%
CCOC(=O)c1oc2c(F)cccc2c1C,i
Cc1ccc(C(=O)COc2ccccc2Cl)cc1C,i
CSc1ccc(CNCCCN2CCOCC2)cc1,i
O=C(Nc1nccs1)c1cn(-c2ccccc2)nc1-c1cc2ccccc2oc1=O,i
O=C(Nc1ccc(F)cc1)c1ccccc1NS(=O)(=O)N1CCCC1,i
CC1(C(=O)NNC(=S)NCc2ccco2)CC1(Cl)Cl (stereo not given),i
CCc1ccc(OC(=O)c2ccc([N+](=O)[O-])cc2)c(Br)c1,i
CNC(=O)CN(Cc1ccccc1)S(=O)(=O)c1ccccc1,i
Cc1ccc(NC2CC(=O)N(CCc3ccccc3)C2=O)cc1 (stereo not given),6.9%
CNC(=O)CC1C(=O)N(c2ccc(F)cc2)C(=S)N1NC(=O)c1ccc(Cl)cc1 (stereo not given),i
CCn1c(COc2ccccc2)nnc1SCC(=O)Nc1cc(Cl)ccc1OC,18.9%
O=C(CC1(O)C(=O)Nc2ccccc21)c1ccc(Cl)s1 (stereo not given),i
CCOc1ccc2nc(SCC(=O)NC3CCCC3)[nH]c2c1,i
OCCNCc1cccc(OCc2ccc(Cl)cc2)c1,i
Cc1sc2nc(SCC(=O)N3CCCCC3C)n(-c3ccccc3)c(=O)c2c1C (stereo not given),i
Cc1cnc(NC(=O)CSc2nnc(CCCOc3ccc(Cl)cc3Cl)o2)s1,39.2%
O=C(CSCc1c(Cl)cccc1Cl)N1CCc2ccccc2C1,i
Cc1cc(NC(=O)C(C)Oc2cccc(Cl)c2)no1 (stereo not given),i
CC1CCc2c(sc3ncnc(Nc4ccc(OCc5ccccc5)cc4)c23)C1 (stereo not given),i
O=C(CSc1ccccc1)Nc1ccc(-c2nc3ccccc3c(=O)o2)cc1,0.47µg/mL*
CCOC(=O)Cn1c(C)nc2ccccc21,i
Cc1c(C)n(CC(O)CN2C(=O)c3ccccc3S2(=O)=O)c2ccccc12 (stereo not given),2.5%
Cc1cc(C)cc(N(CC(=O)Nc2cccnc2)S(C)(=O)=O)c1,2.4%
CS(=O)(=O)N(CC(=O)Nc1ccc(I)cc1)c1cccc2ccccc12,i
CS(=O)(=O)N(CC(=O)Nc1ccc(Cl)cc1)c1ccc(Br)cc1,1.1%
COC(=O)c1c(NC(=O)c2cc(Cl)ccc2OC)sc(C)c1C,i
CCCCSc1nc2c(c(C(F)(F)F)c1C#N)CCC2,i
CC(Oc1cccc(Cl)c1)C(=O)NC1CCCCCCC1 (stereo not given),1.4%
Cc1ccc(Cl)cc1N1CCN(C(=O)CN(c2cccc(F)c2)S(C)(=O)=O)CC1,i
C=C1C2(C(=O)Nc3ccc(F)cc3)CCC(C2)C1(C)C (stereo not given),i
CC(NC(=O)C1CCN(S(=O)(=O)c2ccc(F)cc2)CC1)c1ccccc1 (stereo not given),i
Cc1ccc(S(=O)(=O)N2CCC(C(=O)N3CCCCCC3)CC2)cc1,i
CC(=O)Oc1ccc(C(=O)NCc2ccccc2Cl)cc1,3.6%
COc1ccc(OCCCC(=O)Nc2cc(C)ccc2C)cc1,i
COCCSc1ccccc1C(=O)NC(C)(C)C,i
Cc1ccc(-c2cc(C(F)F)n3ncc(C(=O)N4CCN(c5ncccn5)CC4)c3n2)cc1,i
COc1ccc(OCC#CCNC2CCCCC2)cc1,i
Cc1ccc(N2CC(C(=O)Nc3ccccc3C(N)=O)CC2=O)cc1 (stereo not given),3.8%

# (listing goes on)
SMILES,Mtb H37Rv
Cc1ccc(SCC(=O)NC23CC4CC(CC(C4)C2)C3)cc1,i
Cc1nc(N=C(N)N)nc2cc3c(cc12)OCO3,i
COc1ccccc1C1(C#N)CCOCC1,0.8%
COc1ccc(C2CC(=O)C3=C(C2)Nc2ccccc2NC3c2ccccc2OC)cc1 (stereo not given),i
O=C(Nc1ccccc1)c1cc(S(=O)(=O)Nc2ccc(Br)cc2)cs1,i
CN(C)S(=O)(=O)c1cc(C(=O)NCc2ccccc2)c(Cl)cc1Cl,i
O=C(O)c1ccc(Cn2cnc3scc(-c4ccccc4)c3c2=O)cc1,i
O=S(=O)(Nc1ccc2c(c1)OCCO2)c1cccc(Cl)c1,5.3%
CCCCSc1nc(C)cc(C)n1,i
Cc1ccc(S(=O)(=O)NC(C(=O)Oc2ccc3c(C(F)(F)F)cc(=O)oc3c2)c2ccccc2)cc1 (stereo not given),i
O=C(COc1ccc2ccccc2c1Br)Nc1ccccc1C(=O)N1CCCC1,0.1%
O=C(NCCN1CCCC1)c1ccccc1Cl,i
O=C(NC(=S)Nc1ccc(C(=O)O)c(Cl)c1)c1ccc2ccccc2c1,i
CCc1nc2sc(C(=O)c3ccc4c(c3)OCO4)c(N)c2cc1C,1.1%
COc1ccc(C(CC(=O)c2ccc([N+](=O)[O-])cc2)Nc2ccccc2)cc1 (stereo not given),i

# In another format: entries from further up
Cc1sc2nc(SCC(=O)N3CCCCC3C)n(-c3ccccc3)c(=O)c2c1C (stereo not given)
  Mtb H37Rv: i
Cc1cnc(NC(=O)CSc2nnc(CCCOc3ccc(Cl)cc3Cl)o2)s1
  Mtb H37Rv: 39.2%
O=C(CSCc1c(Cl)cccc1Cl)N1CCc2ccccc2C1
  Mtb H37Rv: i

# Further entries.
SMILES,Mtb H37Rv
CCc1nc(SCC(=O)OC)c2c3c(sc2n1)CCCC3,i
COC(=O)c1cc(OC)c(OC)cc1NC(=O)c1oc2ccccc2c1C,i
OC(CN1c2ccccc2Sc2ccccc21)Cn1nnc2ccccc21 (stereo not given),0.3%
Cc1cc(NC(=O)CCN2C(=O)C3C4C=CC(C4)C3C2=O)c(C)cc1Br (stereo not given),i
O=C(O)C1C2C=CC(C2)C1C(=O)N1CCN(c2cccc(Cl)c2)CC1 (stereo not given),i
COc1ccc2oc(=O)c(-c3cn4cccnc4n3)cc2c1,i
CN(Cc1ccccc1)Cc1ccccc1OC(=O)N(C)C,1.5%
O=C(O)c1cc(S(=O)(=O)O)cc(Nc2c3ccccc3nc3ccccc23)c1O,i
COCC(=O)NNC(=S)NCCc1ccc(OC)c(OC)c1,i
Fc1cnc(N2CCOCC2)nc1N1CCc2ccccc21,i
FC(F)(F)c1cccc(NC(=S)Nc2ccccc2)c1,i
Cc1nc(Nc2nc(C)c3ccccc3n2)[nH]c(=O)c1Cc1ccccc1,i
COCc1cc(C)nc2sc(C(=O)Nc3cccc(Cl)c3)c(N)c12,i
CCOC(=O)N1CCN(CC(O)COc2cc(C)ccc2C(C)C)CC1 (stereo not given),i
CC(C)OC(=O)CN1C(=O)c2ccccc2C1=O,i
CCOc1ccc(-c2cc(C(=O)N3CCOCC3)c3ccccc3n2)cc1,i
CC(=O)c1cc(F)c(N2CCC(C)CC2)cc1C,i
CC(=O)NC(C)CNS(=O)(=O)c1ccc(C)cc1 (stereo not given),i
CCc1ccc2occ(CC(=O)Nc3nnc(SC)s3)c2c1,i
CC(=O)c1ccc(NC(=O)Nc2ccc(OC(F)(F)F)cc2)cc1,i
Oc1ccc2[nH]c(-c3ccccc3)nc2c1CN1CCCCC1,i
O=C(CSc1nnc(-c2ccncc2)n1Cc1ccccc1)c1ccc(Br)cc1,i
Cc1nc2ccc(C(=O)Nc3nncs3)cc2s1,i
O=C(c1ccc(F)cc1)N1CCN(c2ccc([N+](=O)[O-])c(NC3C4CC5CC(C4)CC3C5)c2)CC1 (stereo not given),i
C=CCn1c(O)c(C2=c3cc(OC)ccc3=NC2=O)sc1=S,i
CC(O)CN1CCN(C2=NS(=O)(=O)c3ccccc32)CC1 (stereo not given),1.0%
Cc1cc2c(cc1C)C(c1cc(Br)ccc1F)CC(=O)N2 (stereo not given),i
OCc1ccc(OCc2ccc(Cl)cc2)c(Br)c1,5.8%
CCOC(=O)c1cc(NC(=O)Nc2ccccc2OC)c(C)nc1C,i
COC(=O)c1ccc(NC(=S)N2CCc3ccccc3C2)cc1,i
O=C(O)c1ccc(COc2cccc(CO)c2)cc1,i
CCNC(=S)N1CC(C)OC(C)C1 (stereo not given),i
Cc1ccc(C)c(OCCCC(=O)Nc2ccc3c(c2)OCO3)c1,i
NC(=O)C1(N2CCCCC2)CCN(C(=S)NCc2ccco2)CC1,i
CCOC(=O)CNC(=O)c1ccc(Br)s1,i
Cc1ccccc1OCC(=O)NCC(=O)OCc1ccc(Cl)cc1,i

# High-throughput results (PubChem)
